# Source: PubChem BioAssay
# NPYLR7 agonist – mosquito NPYLR7 agonism | HEK293T NPYLR7/Galpha15, GCaMP6s calcium fluorescence | 270,000 tested, 0.15% active | activation, % at 10 µM; in the data active = activation above about 40%;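 also: 0% = vehicle and 100% = reference agonist at the receptor; some compounds past the cut are filed as inactive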
# NPYLR7 agonist max-min – second read-out of NPYLR7 agonist, no call of its own (marks repeat the call); activation, %; measured here: Max-Min RFU normalised activation; some inactives read as strong as hits;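 span of the calcium signal over five minutes; 0% = vehicle and 100% = native peptide agonist; compound fluorescence can raise it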
# Numbers without * were called inactive; & = joins results of further samples.
SMILES,NPYLR7 agonist,NPYLR7 agonist max-min
COc1ccc(NC(=O)N2CCSC2c2ccccc2OCc2ccccc2)cc1 (stereo unspecified),21,26
CC(=O)N1CCN(C(=O)CN(CCO)Cc2ccsc2)CC1,3,1
CCn1c(=O)c2ccc(Cl)cc2n(CC(=O)NC(C)C)c1=O,-3,-1
CNC(=O)C(C)N(C)Cc1cnc(-c2ccccc2C)s1 (stereo unspecified),15,2
N#Cc1ccc(COC2C[C@](OCc3ccccc3F)(C(=O)NC3CC3)C[C@@H](O)[C@H]2O)cc1 (stereo partly specified),18,15
CN1CCC2(CCN(C(=O)c3nn(C)cc3Cl)CC2)C1,7,6
NC(=O)c1csc(N2CCCC3(C2)C(=O)Nc2ccccc23)n1 (stereo unspecified),6,4
COc1cc(OC)cc(C(=O)N(Cc2cccc(OS(=O)(=O)c3ccc(F)cc3)c2)Cc2ccco2)c1,4,3
Cc1[nH]c(=O)[nH]c(=O)c1C#N,2,1
CN(c1ncccc1CNC(=O)c1ccc(=O)[nH]n1)C1CCCCC1,17,9
COc1ccc(C=CC(=O)c2ccc3ccccc3c2)cc1,1,-2
CCN(CC)c1nc2ccsc2c(=O)n1CCC(=O)NCc1ccccc1OC,-2,-3
CCc1nc2n(n1)C(=O)C(C(c1cccc(Cl)c1)N1CCCC1)S2 (stereo unspecified),-3,3
O=C1C(Cl)=C(Nc2ccc(I)cc2)C(=O)N1Cc1ccc(Cl)cc1,-2,-6
CCn1c(CC2CCN(C(=O)CCc3cnccn3)CC2)nn(C)c1=O,4,4
Cc1ccc(-c2ccc(SCCN3CCCCC3)nn2)cc1,7,1
Cc1nc(N2CCC(C)CC2)ncc1-c1cc(=O)[nH]c(Nc2ccc(F)cc2)n1,-13,-17
CS(=O)(=O)N1CCC(C(=O)N2CCC(Cn3ccnc3)CC2)CC1,1,-2
CC(C)SC(NC(=O)OCc1ccccc1)C(=O)Nc1ccc2ncsc2c1 (stereo unspecified),-8,-14
CN(C)C(CNS(=O)(=O)c1cccc(OC(F)(F)F)c1)c1ccsc1 (stereo unspecified),-1,-1

# Filtered by structure: the entries above containing an NH in an aromatic ring
SMILES,NPYLR7 agonist,NPYLR7 agonist max-min
Cc1[nH]c(=O)[nH]c(=O)c1C#N,2,1
CN(c1ncccc1CNC(=O)c1ccc(=O)[nH]n1)C1CCCCC1,17,9
Cc1nc(N2CCC(C)CC2)ncc1-c1cc(=O)[nH]c(Nc2ccc(F)cc2)n1,-13,-17

# Continued:
SMILES,NPYLR7 agonist,NPYLR7 agonist max-min
Cc1[nH]c(-c2cn(-c3ccccc3)nn2)nc1-c1ccccc1,18,13
O=C(NCCn1ncc2c(=O)n(Cc3cccc(Cl)c3)cnc21)c1ccc(Br)o1,-3,-8
O=C(Nc1nccs1)c1cccc([N+](=O)[O-])c1C(=O)O,-1,-10
O=C(O)c1cccc(NS(=O)(=O)c2cccc(C(=O)Nc3ccccc3)c2)c1,8,7
CC(C)C(NC1C2CC3CC(C2)CC1C3)c1nc2ccccc2[nH]1 (stereo unspecified),0,-1
COc1ccc(CC2CCN(S(=O)(=O)c3ccc(C#N)cc3)CC2)cc1,2,6
COCc1cc(C)nc(OCC(=O)N/N=C\c2cccc(OC)c2)c1C#N,-4,-9
Cc1ccc(-c2c(N)n[nH]c2C)cc1,0,-6
COc1ccc(NC(=O)c2ccc(CN3CC[C@H](O)C3)cc2)c(OC)n1,4,2
Cc1ccc(Cl)cc1Nc1ncccc1C(=O)NC(C)(C)Cc1ccc(F)cc1,-17,-26
CCCNC(=O)N(CCN(C)C)Cc1nccn1Cc1ccc(C(F)(F)F)cc1,16,10
Cc1ccc2c(c1)CCC2NC(=O)C1CNC(=O)N1 (stereo unspecified),10,7
Cc1ccc(C(=O)Nc2nc(-c3ccccc3Cl)ns2)cc1F,2,0
CN(Cc1cn(Cc2ccccc2)nc1-c1cc2ccccc2o1)Cc1nccn1C,-4,-7
Cc1cc(C(=O)NNC(=O)c2ccc(OCC(C)C)cc2)on1,3,-1
N#Cc1nc(N2CCCC2)nc(N(c2ccccc2)c2ccccc2)n1,0,-4
Cc1cccc(-c2cc(N)n(-c3ccc(C(=O)NC[C@@H]4CCCO4)cc3)n2)c1,0,-2
CC(Br)Cn1c(Br)nc2c1c(=O)[nH]c(=O)n2C (stereo unspecified),8,1
CCN(CC)C(=O)CSC(=Nc1ccccc1)NC#N,-9,-11
Cc1cccc(NC(=O)c2c(NC(=O)C(C)(C)C)sc3c2CCCC3)c1,4,2
Cc1cc(OS(C)(=O)=O)c(C(C)C)cc1Cl,2,5
CCC(O)CN1CCSC(c2ccccc2)C1 (stereo unspecified),-1,-6
CCN1CC(c2nc3ccccc3n2Cc2ccc(Cl)cc2)CC1=O (stereo unspecified),2,5
Cc1cc(NC(=O)NC(C)(C)CO)ccc1F,-3,-3
Cc1ccc(Cc2nsc(N(CCC(=O)NCCc3ccccc3)Cc3ccco3)n2)cc1,10,10
O=C(Nc1nccs1)C1CC1,5,6
O=c1c2ccccc2nc(CSc2nnc(-c3cccnc3)n2C2CC2)n1Cc1ccccc1,-4,-7
Cc1onc(-c2ccccc2Cl)c1C(=O)Nc1ccc(Br)cc1F,13,14
CCOc1ncccc1CN1CCC(C(=O)NCCc2cccc(F)c2)CC1,0,-8
O=C(c1ccc(=O)[nH]n1)N1CCCC1Cc1ccccc1 (stereo unspecified),-2,-3
CCCc1cc(=O)[nH]c(-n2nc(C)cc2NC(=O)Cc2ccccc2)n1,-4,-5
CCCCCc1ccc(C(=O)N(CCOC)CC(=O)N(CCc2ccc(OC)c(OC)c2)Cc2sccc2C)cc1,-1,10
Cc1nc2nc(C)c(Br)c(=O)n2[nH]1,10,3
Cc1cc(CS(=O)CC(=O)Nc2c(C)cccc2C)no1 (stereo unspecified),0,-2
O=[N+]([O-])c1ccc(Cl)c(C2c3cccn3CCCN2Cc2ccccc2[N+](=O)[O-])c1 (stereo unspecified),18,35
NC(=N/N=C\c1ccccc1Cl)c1nonc1N,-16,-20
O=C(C1=C2SC=C(c3ccccc3)N2CCCC1)c1ccccc1F,3,-4
COc1cccc(C(=O)Oc2coc(CSc3nccc(C)n3)cc2=O)c1OC,-17,-11
COc1ccc(C(=O)N2CCC(n3c(=O)oc4c(C)cc(C)cc43)CC2)cc1OC,26,16
N#Cc1cc(C(=O)OCCn2cccn2)ccc1N1CCCC1,5,3
COc1ccccc1C(=O)NC(c1ccc(Cl)cc1)C1CC1 (stereo unspecified),-2,-3
COC(=O)C1CN(C)CCC1(C)OC(=O)Oc1ccccc1 (stereo unspecified),9,8
COc1cc(C2=N/C(=C\C(Cl)=C\c3ccccc3)C(=O)O2)cc(OC)c1OC,0,-4
CN(CC(=O)Nc1ccc2c(c1)OC(F)(F)O2)C(=O)c1ccco1,4,3
CCOc1ccc(CN2CCC(N)(C(=O)O)C2)cn1 (stereo unspecified),10,6
CN(C)c1ccc(P(=O)(OCc2ccccc2)C(O)c2ccccc2F)cc1 (stereo unspecified),-1,3
CN1C(=S)SC2c3ccccc3CCN21 (stereo unspecified),-2,-5
Cn1c(SCc2ccc(F)cc2)nc2c([nH]c3ccccc32)c1=O,1,15
C=CCN(CC#Cc1ccccc1)Cc1c(C)nn(C)c1Cl,-5,-7
Cc1c(C(=O)NC2CC2)cnn1-c1ccc(Cl)c(Cl)c1,6,6
# Next section:
SMILES,NPYLR7 agonist,NPYLR7 agonist max-min
N#Cc1cnc(N2CCOCC2CC(O)c2cccs2)c(Cl)c1 (stereo unspecified),6,3
CCC(C)N(Cc1cc(NC(=O)C2CCC2)ccc1N(C)C)S(C)(=O)=O (stereo unspecified),11,19
COc1ccc(Br)cc1S(=O)(=O)Nc1ccccn1,1,0
CC(C)c1ccc(NC(=O)N2CCN(c3nc(-c4cccc(Br)c4)nc4ccccc34)CC2)cc1,5,6
O=C(NCCN1CCCCC1)c1ccn(-c2ccc(F)cc2)n1,-5,-5
CC(=O)Nc1cc(C)nn1-c1ccccc1C(F)(F)F,5,2
COc1cccc(C(NC(=O)C2CCN(CCOc3ccccc3OC)CC2)c2ccccn2)c1 (stereo unspecified),10,0
C=CCN1CCC(C(=O)NC(c2ccc(OC)cc2)c2ccccn2)CC1 (stereo unspecified),14,4
COc1ccc(C(=O)NC(C)C2CC3CCC2C3)c(OC)c1 (stereo unspecified),-23,-21
Cc1nnc2ccc(C(=O)N3CCN(CC(C)O)CC3)cn12 (stereo unspecified),0,0

# The final five compounds of the part above are carried over, then new ones follow.
SMILES,NPYLR7 agonist,NPYLR7 agonist max-min
CC(=O)Nc1cc(C)nn1-c1ccccc1C(F)(F)F,5,2
COc1cccc(C(NC(=O)C2CCN(CCOc3ccccc3OC)CC2)c2ccccn2)c1 (stereo unspecified),10,0
C=CCN1CCC(C(=O)NC(c2ccc(OC)cc2)c2ccccn2)CC1 (stereo unspecified),14,4
COc1ccc(C(=O)NC(C)C2CC3CCC2C3)c(OC)c1 (stereo unspecified),-23,-21
Cc1nnc2ccc(C(=O)N3CCN(CC(C)O)CC3)cn12 (stereo unspecified),0,0
Nc1cc(C(=O)N2CCCN(CCCc3ccccc3)CC2)[nH]n1,-3,-8
Oc1ccc(-c2c(-c3ccccc3)nn3c(C(F)(F)F)cc(C(F)(F)F)nc23)cc1,-13,-20
CCn1nc(-c2cc(Br)cs2)nc2c(=O)n(C)c(=O)nc1-2,5,3
CCCCN1CCCC(Cn2cc(C3CCCC3)nn2)C1 (stereo unspecified),-4,-4
CCOC(=O)c1sc2nc(CC(=O)OC)nc(N)c2c1C,5,3
CC(Sc1cc(-c2ccccc2)c2cc3c(cc2n1)OCCO3)C(N)=O (stereo unspecified),9,4
CC(Cn1cncn1)NCC1(c2cccc(F)c2)CCOCC1 (stereo unspecified),8,7
CCOc1ccc(-n2nnc(C(=O)OCc3cccc(C)c3)c2C)cc1,1,-8
Cc1cnc(C)c(-c2cc(O)c3c(c2)CN(C(=O)c2occc2C)CCO3)n1,-2,-2
O=S(=O)(/C=C/c1ccccc1)Nc1nccnc1-c1ccc(CNCCc2c[nH]c3ccccc23)cc1,-3,-9

# Compound profiles (already shown). Screens in order: NPYLR7 agonist, NPYLR7 agonist max-min
# Entry for CCOC(=O)c1sc2nc(CC(=O)OC)nc(N)c2c1C → 5, 3
# Entry for CCCCN1CCCC(Cn2cc(C3CCCC3)nn2)C1 (stereo unspecified) → -4, -4
# Entry for O=S(=O)(/C=C/c1ccccc1)Nc1nccnc1-c1ccc(CNCCc2c[nH]c3ccccc23)cc1 → -3, -9
# Entry for Nc1cc(C(=O)N2CCCN(CCCc3ccccc3)CC2)[nH]n1 → -3, -8
# Entry for CC(Cn1cncn1)NCC1(c2cccc(F)c2)CCOCC1 (stereo unspecified) → 8, 7

# Pulled by structure from the entries so far (2):
SMILES,NPYLR7 agonist,NPYLR7 agonist max-min
Oc1ccc(-c2c(-c3ccccc3)nn3c(C(F)(F)F)cc(C(F)(F)F)nc23)cc1,-13,-20
CCn1nc(-c2cc(Br)cs2)nc2c(=O)n(C)c(=O)nc1-2,5,3

# Further structures follow:
SMILES,NPYLR7 agonist,NPYLR7 agonist max-min
O=C(Nc1ccc2oc(-c3cc(F)ccc3Br)nc2c1)NC1CC1,1,-2
CC(=O)NCCc1ccc(S(=O)(=O)Nc2cc(C)cc(C)c2)s1,4,3
Oc1ccc(C2(c3ccc(O)c(Cl)c3)CCCC2)cc1Cl,8,5
CC(C)=CC(=O)N1CCN(c2nc3nccc(-c4ccc(Cl)c(Cl)c4)n3n2)CC1,0,-1
Cn1c(=O)c2c(nc(Br)n2CC#N)n(C)c1=O,4,2
CCc1cccc2c(C(CC(=O)NCCN3CCCCC3)c3cccc(F)c3)c[nH]c12 (stereo unspecified),5,17
CN(Cc1cccs1)C(=O)Nc1ccc(Cl)c(Cl)c1,5,5
CN(C)CCNC(=O)[C@@]1(OCc2cccc(F)c2)CC(OCc2cccc(Cl)c2)[C@H](O)[C@H](O)C1 (stereo partly specified),3,18
O=C(c1ccc(Cl)nc1)N1CCN(C(c2ccc(F)cc2)c2ccc(F)cc2)CC1,-5,0
CCOc1ccccc1C(=O)N1CCC(c2cn(Cc3ccc(C(F)(F)F)cc3)c3ccccc23)CC1,5,10
CCc1nccc(-c2c(-c3ccccc3)ncn2CCN2CCOCC2)n1,2,1
O=C(Cn1cnc2c(nnn2Cc2ccc(Cl)cc2)c1=O)OCc1ccccc1,7,6
Cc1ccc(S(=O)(=O)c2cnc(SCC(=O)Nc3ccc(F)cc3)[nH]c2=O)c(C)c1,0,-6
CC(C)C(NCC1CCOCO1)c1cccs1 (stereo unspecified),1,-6
COCCn1c(SCC(=O)O)nc2c1c(=O)[nH]c(=O)n2C,2,0
C[C@@H](O)[C@H]1C(=O)N2C(C(=O)O)=C(S[C@@H]3CN[C@H](C(=O)N(C)C)C3)[C@H](C)[C@H]12,9&-12,-6&-15
COc1cc(C=NNC(=O)C2COc3ccccc3O2)ccc1O (stereo unspecified),-4,-7
CC(=O)Nc1cc(C(=O)OCc2ccc(F)cc2)ccc1C,-3,12
CC(COC(=O)c1ccnn1C)COc1ccccc1 (stereo unspecified),3,1
N#Cc1ccccc1C(=O)N1CCN(Cc2cccc(-c3noc(-c4cccc(C(F)(F)F)c4)n3)c2)CC1,4,0
COCCNC(=O)c1sc(=O)n(Cc2cc(C(C)=O)ccc2OC)c1C,-4,-5
CCOC(=O)C(C#N)=Cc1cc(C)n(C2CCCC2)c1C,9,11
COc1ccc(C(=O)N2CCC(Cc3ccc4c(c3)OCO4)CC2)cc1OC,2,5
CCOC(=O)C(Cc1ccc(Cl)cc1)NC(=O)C(C)(C)CC(=O)c1ccccc1 (stereo unspecified),1,0
Cc1n[nH]c(C)c1S(=O)(=O)Nc1nc2ccccc2nc1N1CCCC1,4,8
Cc1cccc(-c2nc3scc(CCNS(=O)(=O)c4cccc(Cl)c4)n3n2)c1,-15,-15
O=c1c2cnc3nc(-c4ccncc4)nn3c2ccn1CCc1cnc[nH]1,5,8
CCC(C)N(CC#Cc1ccccc1)Cc1cnc2nccn2c1 (stereo unspecified),0,-1
CCOCCCN=C1SCC(CC)N1C(=O)c1ccc(F)cc1 (stereo unspecified),-1,-2
CCCCC(C(=O)OCC(=O)c1ccc(OC)cc1)N1C(=O)c2ccccc2C1=O (stereo unspecified),11,8

# An excerpt; rates above refer to the full screens.
